Dynein_cargo_inh – inhibitors of GR-EGFP nuclear translocation, primary screen, dynein cargo transport inhibitor project, imaging, high-content, 3617.4 mouse cells | test concentration mostly 20 µM; stimulated with dexamethasone, 1 µM; hits give low values | 220,000 tested, 0.47% active | z-score, hits read low | AID 1381, 2008;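 active = plate z-score of nuclear minus cytoplasmic receptor signal below a set negative limit, without overly bright fluorescence or cell loss, cut at about -3.5 in these data, passing the limit was not always enough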;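 note: z-score of nuclear minus cytoplasmic ring GR-EGFP intensity difference per well; some compounds called inactive have numbers as strong as hits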
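Also added – dexamethasone, 1.0 µM final · Buffer or medium – tet-free, stripped-serum medium · Schedule – induction 48 h, compound 1 h, agonist 30 min · Detection – formaldehyde fixation, Hoechst nuclear stain, 10x automated fluorescence imaging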
Autophagy_HCS – autophagy modulators in MEF cells, primary screen, imaging, high-content, MEF GFP-LC3. MEF GFP-LC3 puncta imaging; test concentration mostly 10 µM. calls only at 10 µM (by protocol). 190,000 tested, 0.98% active. AID 463193, 2010;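 active = percentage of spot-positive cells more than 3 SD above its plate mean, without a fluorescence outlier flag or 80% toxicity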;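 note: spot-positive cell cutoff set from DMSO-treated cells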
WT_yeast_gro_inh – growth inhibition of WT strain, primary screen, mitochondrial fusion inhibitor project, WT and mutant strains, chemical genetic; mitochondrial fusion phenotypic screen; inhibition, % at 10 µM; 190,000 tested, 2.1% active; AID 1362, 2008; in the data active = inhibition above about 58%; tested in S. cerevisiae
MT_stabilize_HCS – microtubule stabilizers in HeLa cells, primary screen, imaging, high-content imaging; 200,000 tested, 0.83% active; AID 2205, 2009; % tubulin-high responders, % at 10 µM; HeLa tubulin immunostaining HCS, 24 h; share of cells brighter than vehicle mean+2SD;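 active = plate Z-score above 3 for both tubulin-high and condensed-nucleus cell shares, with cell loss under 80%, at 10 µM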;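 note: anti alpha tubulin signal scored within the nucleus-defined area of each cell; some results filed as inactive read as strong as hits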
Yfh1-off_respiration – enhancers of respiration in Yfh1-depleted yeast, dose response, Friedreich's ataxia, plus single-dose screen (AID 1465); fold induction at 50 µM; hits with a dose series show EC50 in µM; 220,000 tested, 0.074% active; S. cerevisiae Yfh1-off respiration, WST-1 reduction, 72 h; higher fold induction means a stronger effect;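 active = fold induction of absorbance versus untreated yeast above a set limit, then at least 30% activation at any dose in follow-up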;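 note: activators that raise dye reduction in frataxin-depleted yeast; strong numbers were not always called active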
Insulin_prom_up – insulin promoter activators in MIN6 cells, imaging, high-content screening, mouse beta cells; 190,000 tested, 0.3% active; MIN6 insulin promoter-GFP reporter; hits give high values; z-score at 5 µM;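 active = z-score above 3 at 5 µM with at least 500 cells counted in the well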
WT_yeast_gro_inh_mutant_strain – further read-out of WT_yeast_gro_inh, marked with its call; inhibition, %; mitochondrial fusion phenotypic screen, mutant strain inhibition
Dynein_cargo_inh_cytoplasmic_EGFP – also measured in Dynein_cargo_inh; calls as there; z-score; measured here: cytoplasmic GR-EGFP intensity; hits give high values
Dynein_cargo_inh_nuclear_GR-EGFP – further read-out of Dynein_cargo_inh, marked with its call; z-score; measured here: nuclear GR-EGFP intensity;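 lower value marks the stronger effect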
Dynein_cargo_inh_cell_count – recorded beside Dynein_cargo_inh, whose call it bears; z-score; measured here: cell count per field
Insulin_prom_up_cell_count – second read-out of Insulin_prom_up, no call of its own (marks repeat the call); cell count; measured here: cytotoxicity, nuclei count;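 total cells summed across four imaged fields per well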
MT_stabilize_HCS_Hoechst-high_% – also measured in MT_stabilize_HCS; calls as there; % Hoechst-high responders; measured here: nuclear condensation Hoechst responders;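 share of cells brighter than vehicle mean plus two SD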
MT_stabilize_HCS_cytotoxicity_% – also measured in MT_stabilize_HCS; calls as there; toxicity, %; measured here: cytotoxicity by cell density;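 0% = mean cell density of plate MIN control wells and 100% = no cells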
Autophagy_HCS_cell_loss_18_h – second read-out of Autophagy_HCS, no call of its own (marks repeat the call); toxicity, %; measured here: cell loss, nuclei count;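 cell loss after 18 h compound exposure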
Active calls of the source: *; i = inactive; nt = not tested or not shown; + = active, no number. The list is partial, so the mix of outcomes need not match the whole.

SMILES Dynein_cargo_inh Dynein_cargo_inh_cytoplasmic_EGFP Dynein_cargo_inh_nuclear_GR-EGFP Dynein_cargo_inh_cell_count Autophagy_HCS Autophagy_HCS_cell_loss_18_h WT_yeast_gro_inh WT_yeast_gro_inh_mutant_strain MT_stabilize_HCS MT_stabilize_HCS_Hoechst-high_% MT_stabilize_HCS_cytotoxicity_% Yfh1-off_respiration Insulin_prom_up Insulin_prom_up_cell_count
COc1ccc(C(=O)Nc2cc3c(cc2OC)CCCC3)cc1Br -0.68 -0.25 -0.74 1.8 i 24 0 8 1.2 1.5 13 nt 0.03 1733
COc1ccc(N2CCN(C(=O)c3ccc(OCc4c(C)noc4C)c(OC)c3)CC2)cc1 -1.3 -0.19 -1.2 0.89 i 3 -1 -13 2.8 1.4 4.4 i 0.45 1057
O=C(Nc1cccc(C(=O)N2CCOCC2)c1)c1cccnc1 0.31 -0.21 0.18 0.27 i -2 9 1 3.2 2.9 2.9 i nt nt
COc1ccc(NC(=O)N2CCC(C(=O)c3ccc(F)cc3)CC2)cc1 -0.61 -0.21 -0.93 0.14 i 0 10 -11 2.2 2.0 3.9 i 0.59 1419
Cc1ccc(C)c(Nc2c([N+](=O)[O-])cc(C(=O)N3CC(=O)Nc4ccccc43)cc2[N+](=O)[O-])c1 0.76 -0.21 -0.078 -0.14 i 25 -5 -3 3.0 2.1 7.5 i -0.01 1620
COc1cc(CN2CCN(C(=O)CC(C)C)CC2)cc(OC)c1OC 0.29 0.018 0.19 0.052 i 0 40 9 2.8 2.0 8.2 i -0.14 1549
CCCn1c(NC(=O)C2CCN(S(=O)(=O)c3cccs3)CC2)nc2ccccc21 1.6 -0.16 0.67 -0.77 i -11 36 -9 3.4 1.1 1.8 i -2.9 836
N#C/C(C(=O)Oc1ccccc1)=C1/Nc2ccccc2-c2ccccc21 0.67 -0.25 -0.62 -0.086 + 3.3* -37 -18 6.3 39 31 nt -0.83 1589
CCOc1ccc(N=C2NC(=O)S/C2=C\c2ccc(N(C)C)cc2)cc1 -0.46 2.1 0.18 0.4 + 23* -9 5 17 2.7 2.8 nt 2 1070

A stretch from the list above, for reference:
SMILES Dynein_cargo_inh Dynein_cargo_inh_cytoplasmic_EGFP Dynein_cargo_inh_nuclear_GR-EGFP Dynein_cargo_inh_cell_count Autophagy_HCS Autophagy_HCS_cell_loss_18_h WT_yeast_gro_inh WT_yeast_gro_inh_mutant_strain MT_stabilize_HCS MT_stabilize_HCS_Hoechst-high_% MT_stabilize_HCS_cytotoxicity_% Yfh1-off_respiration Insulin_prom_up Insulin_prom_up_cell_count
COc1ccc(N2CCN(C(=O)c3ccc(OCc4c(C)noc4C)c(OC)c3)CC2)cc1 -1.3 -0.19 -1.2 0.89 i 3 -1 -13 2.8 1.4 4.4 i 0.45 1057
O=C(Nc1cccc(C(=O)N2CCOCC2)c1)c1cccnc1 0.31 -0.21 0.18 0.27 i -2 9 1 3.2 2.9 2.9 i nt nt
COc1ccc(NC(=O)N2CCC(C(=O)c3ccc(F)cc3)CC2)cc1 -0.61 -0.21 -0.93 0.14 i 0 10 -11 2.2 2.0 3.9 i 0.59 1419
Cc1ccc(C)c(Nc2c([N+](=O)[O-])cc(C(=O)N3CC(=O)Nc4ccccc43)cc2[N+](=O)[O-])c1 0.76 -0.21 -0.078 -0.14 i 25 -5 -3 3.0 2.1 7.5 i -0.01 1620

High-throughput results (PubChem)
